High-throughput results (PubChem)
Bm FixLJ act = increases Burkholderia fixLJ two-component signaling; B. multivorans fixK-promoter GFP reporter, 18 h; stronger effect = higher value; AID 1918990; z-score (concentration not given with the values); 29,000 compounds, 0.3% hits;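 active = replicate mean overnight rise in green fluorescent reporter signal, 3 or more SD over negative controls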;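 note: score is relative to vehicle wells of the plate; 300 nL library stock went into each well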
* = called active by the depositor; & = joins results of further samples.

cpd	canonical_smiles	Bm FixLJ act
1	CCOC(=O)c1ccc(N2C(=O)c3n[nH]c(-c4cccs4)c3C2c2cccc(OC)c2)cc1 (stereo unspecified)	-0.62
2	CCCCOC(=O)/C(C#N)=C\c1ccc(-c2ccc(Cl)cc2)o1	1.2
3	COc1ccccc1C(=O)N(c1ccc(C)cc1)S(=O)(=O)c1ccc(Cl)cc1	0.67
4	Cc1ccc(Cl)cc1N1CCN(CCCNC(=O)c2ccc3nc(N4CCCCC4)sc3c2)CC1	-1.49
5	COc1ccc(Cl)cc1NC(=O)CCS(=O)(=O)c1nc(-c2cccs2)cc(C(F)(F)F)n1	-3.13
6	CN(Cc1ccccc1)C(=O)CSc1nc(-c2ccc(F)cc2)cc(C(F)(F)F)n1	0.27
7	O=C(NCCn1cc(SCc2cccc(F)c2)c2ccccc21)c1cccc(C(F)(F)F)c1	1.4
8	CSc1ccc(C2C(C(=O)Nc3ccccc3)=C(C)Nc3nc4ccccc4n32)cc1 (stereo unspecified)	-2.19
9	COCCNc1nc2c(S(=O)(=O)c3ccc(C)c(C)c3)nnn2c2ccc(Cl)cc12	-0.44
10	Cc1[nH]nc(-c2ccc(S(=O)(=O)NCC3CCC4CCCC43)o2)c1C (stereo unspecified)	-1.79
11	c1coc(CN(CCN2CCOCC2)Cc2cc(C3CCCCC3)no2)c1	-3.61
12	COc1cccc(-c2cc(C(=O)N3CCC(Cn4cccn4)CC3)[nH]n2)c1	-0.1
13	C[n+]1ccccc1C=NO	-0.33
14	CCOC(=O)c1ccccc1NC(=O)CN(c1cc(C(F)(F)F)ccc1Cl)S(C)(=O)=O	1.07
15	CCOC(=O)C(CC)Sc1ncnc2sc3c(c12)CCCC3 (stereo unspecified)	-0.33
16	Cc1ccc(CNC(=O)CCCCn2c(=O)c3ccccc3n(Cc3c(C)cc(C)cc3C)c2=O)cc1	-1.36
17	CCOc1ccccc1NC(=O)Cn1c(=O)n(CCCC(=O)NCCOC)c(=O)c2cc(OC)c(OC)cc21	-0.99
18	COc1ccccc1N(CC(=O)Nc1ccc2c(c1)OCO2)S(=O)(=O)c1ccc(C)cc1	-0.68
19	COC(=O)c1ccccc1NC(=O)CN(c1ccc(Cl)cc1)S(=O)(=O)c1ccc(OC)cc1	-0.24
20	COc1ccccc1Cn1cc(C(=O)c2ccccc2)c(=O)c2cc(OC)c(OC)cc21	-1.98
21	Oc1cccc(-c2nc3ncccn3c2Nc2cccc(C(F)(F)F)c2)c1	-2.02
22	Cc1cccc(Cn2nnc(C(=O)Nc3cc(C)ccc3C)c2N)c1	-1.67
23	CC(=O)c1ccc(NS(=O)(=O)c2ccc(Br)s2)cc1	-3.99
24	CCOC(=O)c1cccc(NC(=O)CN2C(=O)CC(C)(C)Sc3ccccc32)c1	-2.71
25	Cc1ccc(C(C)NC(=O)CN2CCC(c3cccc(O)c3)CC2)cc1 (stereo unspecified)	-1.89
26	COc1cccc(-c2nc(CS(=O)(=O)CC(=O)NCc3ccc(C)cc3)c(C)o2)c1	-2.14
27	Cc1ccc(NC(=O)Cn2c(=O)n(-c3ccc(CC(=O)NCC4CCCO4)cc3)c(=O)c3ccccc32)cc1 (stereo unspecified)	-1.81
28	COc1ccc(NC(=O)CCS(=O)(=O)c2nc(-c3cccs3)cc(C(F)(F)F)n2)cc1	-1
29	O=C(CSc1nnc(-c2ccc(Cl)cc2)o1)c1ccc([N+](=O)[O-])cc1	-3.11
30	O=C(c1ncn[nH]1)N1CC(c2cc(F)cc(F)c2)C2C1C1CCN2CC1 (stereo unspecified)	0.38
31	Cc1ccc(N2CCN(c3nc4ccccc4n4nnnc34)CC2)c(C)c1	-1.27
32	CCN(C(=O)c1cc2c(=O)oc3ccc(C)cc3c2s1)c1ccccc1C	1.52
33	CCOc1ccccc1C(=O)N1CCC(CNC(=O)c2ccccc2CC)CC1	0.75
34	CCN(CCCNC(=O)c1cc2c(=O)[nH]c3ccccc3c2s1)c1ccccc1	0.4
35	Cc1oc2cc3oc(=O)c(CC(=O)NCc4ccccc4)c(C)c3cc2c1C	-2.24
36	CC(C)c1ccc(Nc2c(-c3ccccc3O)nc3cnccn23)cc1	-0.08
37	Cc1nc2c(C(=O)N(C)Cc3ccccc3)c[nH]n2c(=O)c1Cc1ccc(Cl)cc1	-0.11
38	CCc1cccc(C)c1Nc1c(-c2cccs2)nc2nc(C)cc(C)n12	-1.16
39	Cc1ccnc(NC(c2ccccc2F)c2ccc3cccnc3c2O)c1 (stereo unspecified)	-0.71
40	Cc1cccc2c1-c1sc(C(=O)NCc3ccccc3Cl)cc1CO2	0.84
41	CCCNC(=O)CCc1c(C)nc2nc(-c3cc(OC)cc(OC)c3)nn2c1C	-1.35
42	CN(Cc1ccc2nsnc2c1)C(=O)NCC1(Cn2ccnc2)CC1	0.57
43	Cc1nn(-c2ccccc2)c(-n2cccc2)c1C(=O)N1CCN(c2ccccc2)CC1	-0.03
44	Cc1ncsc1CCN(C)Cc1nc2c(cnn2C)c(=O)[nH]1	0.36
45	Cc1ccc(Nc2c(-c3ccco3)nc3ccc(C)cn23)cc1	-0.33
46	CCOc1ccc(NC(=O)Cn2c(=O)n(-c3ccccc3)c(=O)c3ccc(C(=O)NCc4ccc5c(c4)OCO5)cc32)cc1	-0.2
47	COc1cc(NC(=O)CSc2nc(-c3ccc(C)cc3)nc3c2Cc2ccccc2O3)cc(OC)c1	0.54
48	Cn1nc(C(F)(F)F)c2cc(C(=O)N3CCCC4(CC3)CNC(=O)O4)sc21 (stereo unspecified)	-4.52
49	Cc1cc(S(=O)(=O)Nc2cc3c(cc2N2CCOCC2)n(C)c(=O)n3C)ccc1F	-1.38
50	COc1ccc(NC(=O)CCSc2nc(-c3ccc(OC)cc3)cc(C(F)(F)F)n2)cc1	-0.86

(more compounds)
cpd	canonical_smiles	Bm FixLJ act
51	Cc1ccc(Cn2c(SCc3ccc(C(=O)NC4CCCC4)cc3)nc3ccncc32)cc1	-3.71
52	Cc1cc(C(C)(C)CC(C)(C)C)ccc1OCCOCC[N+](C)(C)Cc1ccccc1	-5.31
53	COCCCN1C(=O)c2oc3ccccc3c(=O)c2C12C(=O)N(C)c1ccccc12 (stereo unspecified)	-0.03
54	COc1ccc(NC(=O)c2c(C)oc3ccc(O)c(CN4CCOCC4)c23)cc1	0.11
55	Cc1ccc(Nc2c3c(nc4ccccc24)CCC3)cc1F	-0.33
56	CCCn1cnc2cc(NCc3ccccc3OCC)ccc21	0.48
57	COc1ccc(CCCc2nnc(SCC(=O)Nc3cccc(C)c3)o2)cc1	-1.18
58	CCOC(=O)N1CCc2c(sc3c2c(=O)n(-c2ccc(CC)cc2)c(=O)n3Cc2cccc(OC)c2)C1	-0.21
59	COc1cccc(-c2ccnc3c(-c4ccccc4)c(C)nn23)c1	0.37
60	CC(C)c1ccc(C(=O)Nc2cccc3cccnc23)cc1	-0.91
61	Cc1ccc(-n2c(=O)c3ccc(C(=O)NCc4ccco4)cc3n(Cc3cccc(Cl)c3)c2=O)cc1	-1.33
62	Cc1cnc(C(C)NC(=O)c2ccc(C#CC(C)(C)O)o2)[nH]1 (stereo unspecified)	0.46
63	Cc1ccc2cc3cc(C(=O)N(C)c4ccccc4C)oc3nc2c1	-2.03
64	COCCCNC(=O)CCn1c(=O)c2ccccc2n(CC(=O)Nc2c(C)cc(C)cc2C)c1=O	-0.6
65	O=C(O)c1ccccc1Nc1cccc(C(F)(F)F)c1	-1.52&-1.82
66	Cc1ccc(S(=O)(=O)N(CC(=O)NCCSc2ccc(Cl)cc2)c2ccccc2C)cc1	-0.67
67	Cc1ccc2oc(=O)c3cc(C(=O)Nc4cccc(C#N)c4)sc3c2c1	-0.21
68	Cc1cc(C)c(Cn2c(=O)n(CCCCC(=O)NCc3ccccc3Cl)c(=O)c3ccccc32)c(C)c1	-0.72
69	CCCN(Cc1cccc(OC)c1)C(=O)CCc1cn[nH]c1	-2.5
70	Cc1nnnn1-c1cccc(NC(=O)c2cccc3c2CCC3=O)c1	0.24
71	Cc1cc(S(=O)(=O)Nc2ccc3oc4c(c3c2)CCCC4)ccc1Cl	1.15
72	CCCCCc1ccc(NC(=O)N(C)Cc2cnc(N)nc2)cc1	-0.86
73	CCc1cccc(NCc2ccccc2-c2nnc(-c3ccccc3Cl)o2)c1	0.3
74	COc1ccc(OCCn2nnc3sc4c(c3c2=O)CCC(C(C)(C)C)C4)cc1 (stereo unspecified)	1.12
75	O=C(NCc1nncn1CCc1ccccc1)c1ccncc1Cl	-1.22

Entries shown so far that contain two or more sulfur atoms, in the order listed:
cpd	canonical_smiles	Bm FixLJ act
5	COc1ccc(Cl)cc1NC(=O)CCS(=O)(=O)c1nc(-c2cccs2)cc(C(F)(F)F)n1	-3.13
15	CCOC(=O)C(CC)Sc1ncnc2sc3c(c12)CCCC3 (stereo unspecified)	-0.33
23	CC(=O)c1ccc(NS(=O)(=O)c2ccc(Br)s2)cc1	-3.99
28	COc1ccc(NC(=O)CCS(=O)(=O)c2nc(-c3cccs3)cc(C(F)(F)F)n2)cc1	-1
66	Cc1ccc(S(=O)(=O)N(CC(=O)NCCSc2ccc(Cl)cc2)c2ccccc2C)cc1	-0.67

Sorted by molecular weight (highest first): 3 of the compounds above.
cpd	canonical_smiles	Bm FixLJ act
58	CCOC(=O)N1CCc2c(sc3c2c(=O)n(-c2ccc(CC)cc2)c(=O)n3Cc2cccc(OC)c2)C1	-0.21
73	CCc1cccc(NCc2ccccc2-c2nnc(-c3ccccc3Cl)o2)c1	0.3
65	O=C(O)c1ccccc1Nc1cccc(C(F)(F)F)c1	-1.52&-1.82

(cont.)
cpd	canonical_smiles	Bm FixLJ act
76	Cc1c(C(=O)N2CCC3(CC2)CNC(=O)O3)sc2nc[nH]c(=O)c12	-0.48
77	Cc1ccc(C)c(C(=O)N2CCn3nc(C(=O)NCCO)cc3C2)c1	-0.16
78	COc1ccc(CCNC(=O)c2cnc3ccc(C)cn3c2=O)cc1OC	0.4
79	CCOC(=O)c1cc(CC)sc1NC(=O)COc1ccccc1C	0.02
80	CC(Cc1ccsc1)NC(=O)Nc1ccccc1CC(=O)N(C)C (stereo unspecified)	1.59
81	COc1ccc(OC)c(C2CC(=O)c3c([nH]c(C(=O)OC4CCC(C)CC4)c3C)C2)c1 (stereo unspecified)	-0.75
82	Cc1cc(S(=O)(=O)Nc2cc3c(cc2Cl)n(C)c(=O)c(=O)n3C)ccc1F	-0.1
83	CCS(=O)(=O)c1ncc(Cl)c(C(=O)Nc2c(C(=O)c3ccc(C)cc3)oc3ccccc23)n1	-1.82
84	CC(=O)CC(c1ccccc1)c1c(O)c2ccccc2oc1=O (stereo unspecified)	-0.74
85	Cc1ccc2c(CC(=O)Nc3ccccc3C(F)(F)F)coc2c1C	-0.47
86	COc1ccc(CNC(=O)c2cnn(-c3ccccc3)c2-n2cccc2)cc1OC	2.31
87	CC(=O)c1cccc(NC(=O)CCc2c(C)nc3nc(CN)nn3c2C)c1	-2.57
88	CCOc1ccccc1-c1nc(-c2ccc(-c3ccccc3)nc2OCC)no1	-2.24
89	CCSc1nnc2c(n1)OC(c1ccc(OC)c(OC)c1)N(C(C)=O)c1ccccc1-2 (stereo unspecified)	-2.78
90	NC(=O)c1nc(-c2ccc(F)c(F)c2)nc2c1[nH]c(=O)n2-c1cccc(Cl)c1	-2.58
91	CCCCN(CC)CCNC(=O)C1CCN(S(=O)(=O)c2cccc3nsnc23)CC1	-1.52
92	COC1CN(C)CC1NC(=O)c1cnc2cccc(C)n2c1=O (stereo unspecified)	-0.39
93	COc1ccccc1CCNC(=O)CCc1c(C)c2cc3c(C)coc3cc2oc1=O	-0.53
94	Cn1ccc(NC(=O)CN2CCN(S(=O)(=O)c3ccccc3)CC2)n1	-0.35
95	CCOc1cccc(C2c3c(-c4cc(C)ccc4O)n[nH]c3C(=O)N2Cc2ccco2)c1 (stereo unspecified)	-0.37
96	Cc1ccc(-c2ccc(CCC(=O)O)n2-c2ccc(C(N)=O)cc2)cc1	-0.96
97	Cc1cc(C)c2c(=O)cc(C(=O)Nc3ccc(S(=O)(=O)Nc4nc(C)cc(C)n4)cc3)oc2c1	1.09
98	CC1Oc2cc(NC(=O)NCc3ccc(C(=O)N(C)C)o3)ccc2N(C)C1=O (stereo unspecified)	0.48
99	CCOc1ccc(C(=O)Nc2ccc(-c3nc4cc(CC)ccc4o3)cc2)cc1	-3.44
100	Cc1ccc(NC(=O)Cn2c(=O)n(CC(=O)NCCc3ccccc3)c(=O)c3ccccc32)cc1C	-2.67
101	Cc1cc(N)n(CC(=O)N(Cc2ccc(C)s2)C2CC2)n1	1.78
102	CNc1nc(Oc2ccc(=O)n(C)n2)nc(N2CCOCC2)n1	-1.21
103	CNCCC(Oc1ccc(C(F)(F)F)cc1)c1ccccc1 (stereo unspecified)	-1.63&0
104	COc1cccc(C2=NN(S(C)(=O)=O)C(c3cn(-c4ccccc4)nc3-c3cccs3)C2)c1 (stereo unspecified)	0.92
105	COc1ccc(-c2nc(S(=O)(=O)c3ccc(Cl)cc3)c(N3CCCCCC3)o2)cc1	-1.43
106	COc1ccc(CNc2oc(COc3cccc(C)c3)nc2C#N)cc1	-0.19
107	COc1ccc(C(=O)Oc2ccc(C(c3c(C)[nH][nH]c3=O)c3c(C)[nH][nH]c3=O)cc2)cc1	-2.57
108	CCN1CCN(Cc2c(O)ccc3oc(C)c(C(=O)Nc4ccc(C)cc4C)c23)CC1	0.32
109	COc1ccc(-c2cc(C(F)(F)F)nc(NCc3ccccc3)n2)cc1OC	1.15
110	COC1C(NC(=O)c2cn(C)nc2C)c2ccccc2C12CCNCC2 (stereo unspecified)	-1.06
111	Cc1ccc(C)c(CN2C(=O)c3ccccc3S(=O)(=O)c3ccc(C(=O)NCCC4=CCCCC4)cc32)c1	0.03
112	CC(=O)c1cccc(NC(=O)CCc2c(C)nc3c(-c4ccc(F)cc4)c(C)nn3c2C)c1	-0.76
113	COc1ccc(-c2nc3n(n2)C(c2ccccc2F)C(C(=O)Nc2cccnc2)=C(C)N3)cc1OC (stereo unspecified)	-1.89
114	CCOC(=O)N1CCc2c(sc3c2c(=O)n(Cc2ccccc2)c(=O)n3Cc2ccc(C)cc2)C1	-1.27
115	Cc1ccc2oc(-c3ccc(C)c(NC(=O)c4ccc(C(C)(C)C)cc4)c3)nc2c1	-0.44

The list is partial; count on the stated rates, not on these rows.
